Assay outcomes from PubChem.
MITF inhib: inhibitors of MITF, primary screen, MITF inhibitor project, cell-based, luminescence; TRPM1 promoter luciferase, 24 h; inhibition, % (concentration not given with the values); 0.28% of 37,000 active;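 active means most replicates at 85% or more, or half of them and the mean; inconclusive means half reach 85% but not the mean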;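 further: human melanocyte line stably carrying TRPM1 promoter luciferase reporter; 0% = vehicle wells and 100% = a positive control; the first replicate is given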
Hedgehog inh: Hedgehog pathway signaling inhibitors, primary screen, luminescence, Shh-LIGHT2 cells, Gli-luciferase | inhibition, % (concentration not given with the values) | Shh-LIGHT2 Gli-luciferase reporter, 30 h | AID 2313, 2010 | 2.1% of 22,000 active;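 active means replicate mean of 65% or more; inconclusive means mean lower but half the replicates past it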;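 further: pathway switched on by Shh-conditioned medium diluted 1 in 25 in low serum; 100 nL library stock added to about 40 µL; 0% = median of neutral wells and 100% = positive control level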
PD-1 reverse act: activators reversing PD-1 mediated T-cell inhibition, primary screen, luminescence, primary human CD4 T cells, PD-L1 beads | AID 2316, 2010 | 29,000 tested, under 10 active | activation, % (test concentration not listed) | CellTiter-Glo 96 h;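 active means replicate mean of 50% or more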;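 further: 0% = median vehicle wells and 100% = positive control; 100 nL library stock added to about 50 µL; numbers are from one replicate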
YB-1 expression: inhibitors of YB-1 gene expression, primary screen, cell-based, fluorescence | 0.37% of 30,000 active | U2OS, qRT-PCR YB-1 vs CDIP delta delta Cp, 16 h; active compounds read high; zero = DMSO, each unit about twofold | AID 434959, 2010 | delta delta Cp (YB-1 minus CDIP) (concentration not given with the values);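 active means delta delta Cp rounded down to an integer at or above 3, about 3 SD of DMSO wells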;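 further: higher means less YB-1 transcript or more CDIP transcript relative to DMSO; stock transfer was 100 nL into about 100 µL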
* = called active by the depositor; ? = inconclusive; . = not tested or not shown. A portion of the library; rates above refer to the full screens.

compound,Hedgehog inh,MITF inhib,PD-1 reverse act,YB-1 expression
CCOC(=O)c1cc(C)nc(Sc2ccccc2NC(=O)c2cccc(C(F)(F)F)c2)c1C#N,1,-1,-0.7,0.11
Nc1ncnc2c1ncn2C1CCC(CO)O1 (centres undefined),-62,1,3.4,-0.44
CC(C)NC(=O)Nc1ccc2c(c1)CC(=O)N([C@H](C)CO)C[C@@H](C)[C@H](CN(C)Cc1ccc(Cl)c(Cl)c1)O2,-1,6,.,0.086
C[C@H](CO)N1C[C@H](C)[C@H](CN(C)Cc2ccc(Oc3ccccc3)cc2)Oc2ccc(NS(=O)(=O)c3cn(C)cn3)cc2C1=O,6,2,-0.3,0.038
C[C@@H]1CCCCO[C@@H](CN(C)S(=O)(=O)c2cn(C)cn2)[C@@H](C)CN([C@H](C)CO)C(=O)c2cc(NC(=O)CCCN(C)C)ccc2O1,.,-8,.,-0.68
O=C1CSC(=S)N1CCc1ccc(Cl)cc1,6,9,0.1,0.28
COc1cc(C2OCC3C(c4ccc(OC5OC(CO)C(O)C(O)C5O)c(OC)c4)OCC23)ccc1O (centres undefined),44,0,-1.4,-0.86
CC(C)NC(=O)N(C)C[C@@H]1Oc2c(NS(=O)(=O)c3cn(C)cn3)cccc2C(=O)N([C@@H](C)CO)C[C@@H]1C,-5,5,3.1,0.27
Cc1ccc(S(=O)(=O)N(C)C[C@H]2OCCCC[C@@H](C)Oc3ccc(NC(=O)CCCN(C)C)cc3C(=O)N([C@H](C)CO)C[C@@H]2C)cc1,.,5,-0.5,-0.55
C[C@H]1CN([C@@H](C)CO)C(=O)c2cc(NC(=O)CCN3CCOCC3)ccc2O[C@H]1CN(C)Cc1ccc(-c2ccccc2)cc1,19,-19,-0.5,0.099
CCOC(=O)NC(=S)Nc1ccc(C(C)(C)C)cc1,14,-70,2.2,-0.042
C[C@@H]1CN([C@H](C)CO)C(=O)c2cc(NC(=O)Nc3ccc4c(c3)OCO4)ccc2O[C@@H]1CN(C)C(=O)Nc1cccc2ccccc12,-12,12,-1.1,-0.005
C[C@H]1CN([C@@H](C)CO)C(=O)c2cccc(NS(=O)(=O)c3ccc(F)cc3)c2O[C@@H]1CN(C)Cc1ccc(C(F)(F)F)cc1,16,-5,0.4,-0.3
NCCOc1ccc(Cl)cc1,?,-35,-3.9,-0.012
O=C(/C=C/c1ccc(O)cc1)c1ccc(O)cc1O,10,-78,.,0.2
C[C@H]1CN([C@@H](C)CO)C(=O)Cc2cc(NS(=O)(=O)c3ccc(Cl)cc3)ccc2O[C@H]1CN(C)S(=O)(=O)c1ccc(Cl)cc1,14,4,0.2,-0.0055
N#Cc1c(NC(=O)c2cc(S(=O)(=O)N3CCOCC3)cs2)sc2c1CCCC2,.,23,-0.5,.
C[C@H]1CN([C@@H](C)CO)C(=O)Cc2cc(NS(=O)(=O)c3ccc(Cl)cc3)ccc2O[C@H]1CN(C)Cc1ccc(-c2ccccc2)cc1,32,26,2.6,-0.39
C1=C(N2CCOCC2)Cc2ccccc21,-7,0,-0.5,0.36
Cc1ccc(OCC(=O)Nc2ccc3oc(-c4ccccc4C)nc3c2)cc1C,.,-82,0.8,.

Part of the list above in order of molar mass, smallest number first:
compound,Hedgehog inh,MITF inhib,PD-1 reverse act,YB-1 expression
NCCOc1ccc(Cl)cc1,?,-35,-3.9,-0.012
Nc1ncnc2c1ncn2C1CCC(CO)O1 (centres undefined),-62,1,3.4,-0.44
C[C@H]1CN([C@@H](C)CO)C(=O)c2cccc(NS(=O)(=O)c3ccc(F)cc3)c2O[C@@H]1CN(C)Cc1ccc(C(F)(F)F)cc1,16,-5,0.4,-0.3

Whole records, quoted from the list. Order of screens: Hedgehog inh	MITF inhib	PD-1 reverse act	YB-1 expression
Shown for O=C1CSC(=S)N1CCc1ccc(Cl)cc1 = 6	9	0.1	0.28
Shown for Cc1ccc(S(=O)(=O)N(C)C[C@H]2OCCCC[C@@H](C)Oc3ccc(NC(=O)CCCN(C)C)cc3C(=O)N([C@H](C)CO)C[C@@H]2C)cc1 = .	5	-0.5	-0.55

Next part:
compound,Hedgehog inh,MITF inhib,PD-1 reverse act,YB-1 expression
COc1cccc(C(=O)COc2cccc(NC(=O)c3cccc([N+](=O)[O-])c3)c2)c1,.,55,-1.5,.
Cc1cc(C(=O)Nc2cccc3c2O[C@@H](CN(C)S(=O)(=O)c2ccccc2)[C@@H](C)CN([C@H](C)CO)C3=O)n(C)n1,-3,-43,-0.1,0.025
C[C@H]1CN([C@@H](C)CO)C(=O)c2cc(NC(=O)C3CC3)ccc2O[C@@H]1CN(C)S(=O)(=O)c1ccccc1,.,4,-0.1,-0.12
O=C(CC(=O)Nc1ccccc1OC(F)(F)F)Nc1ccccc1OC(F)(F)F,-7,-6,-4.7,-0.43
Cc1ccc(S(=O)(=O)N(C)C[C@H]2Oc3c(NC(=O)Nc4ccccc4)cccc3C(=O)N([C@@H](C)CO)C[C@@H]2C)cc1,-10,-10,1.5,0.18
C[C@@H]1CN([C@H](C)CO)C(=O)c2cccc(NS(=O)(=O)c3ccc(F)cc3)c2O[C@@H]1CN(C)S(=O)(=O)c1cn(C)cn1,-16,-5,0.5,0.34
Cc1noc(C)c1NC(=O)Nc1cccc2c1O[C@H](CN(C)Cc1ccc(C(=O)Nc3ccccc3N)cc1)[C@H](C)CN([C@@H](C)CO)C2=O,.,-12,-1.2,-0.76
C[C@H](CO)N1C[C@H](C)[C@@H](CN(C)C)Oc2ccc(N(C)C)cc2C1=O,-4,10,.,0.099
O=C(CCn1[nH]c(=O)c2ccccc2c1=O)NCc1ccccc1,.,-20,2.5,.
O=C(COc1ccc(Cl)cc1Cl)NCCO,.,-10,-0.4,-0.058
CNC[C@@H]1Oc2ccc(NC(=O)Nc3ccc(C(F)(F)F)cc3)cc2CC(=O)N([C@H](C)CO)C[C@@H]1C,2,2,2.0,-0.27
C[C@H]1CN([C@@H](C)CO)C(=O)Cc2cc(NS(C)(=O)=O)ccc2O[C@H]1CN(C)Cc1ccncc1,3,-5,.,-0.074
C[C@@H]1CN([C@H](C)CO)C(=O)c2cccc(NS(=O)(=O)c3ccccc3)c2O[C@H]1CN(C)Cc1ccc(C(=O)Nc2ccccc2N)cc1,.,-20,0.6,0.062
C[C@@H]1CN([C@H](C)CO)C(=O)Cc2cc(NC(=O)Nc3ccc(F)cc3)ccc2O[C@@H]1CN(C)Cc1ccncc1,-30,-4,-1.5,0.16
CCOc1ccc(NC(=O)CSc2nnc(-c3cccs3)n2C)cc1,.,-11,2.5,.
CCn1c(SCC(=O)Nc2cccc(Cl)c2Cl)nnc1-c1ccc([N+](=O)[O-])cc1,.,5,-0.6,.
Cc1ccc(S(=O)(=O)Nc2cccc3c2O[C@@H](CN(C)S(=O)(=O)c2cccs2)[C@H](C)CN([C@@H](C)CO)C3=O)cc1,5,10,-0.2,0.18
Cc1noc(C)c1NC(=O)N(C)C[C@H]1Oc2ccc(NS(C)(=O)=O)cc2CC(=O)N([C@H](C)CO)C[C@H]1C,-30,0,3.1,-0.027
CNC[C@H]1Oc2c(NS(=O)(=O)c3ccc(F)cc3)cccc2C(=O)N([C@@H](C)CO)C[C@H]1C,-6,-20,.,0.069
COc1ccc(CCNC(=S)n2cc(C)cn2)cc1OC,.,55,-12,.
O=C(O)Cn1cc(C(=O)C2CCCCC2)c2ccccc21,.,-3,0.2,.
COc1cccc(NC(=O)CSc2nnnn2C)c1,.,-28,2.9,.
Cc1noc(C)c1NC(=O)N(C)C[C@H]1Oc2c(NC(=O)C3CCOCC3)cccc2C(=O)N([C@H](C)CO)C[C@@H]1C,-29,0,1.6,-0.98
COc1ccc(CN(C)C[C@H]2Oc3ccc(NS(=O)(=O)c4ccc(Cl)cc4)cc3C(=O)N([C@@H](C)CO)C[C@H]2C)cc1,18,0,1.0,0.2
CC(C)NC(=O)N(C)C[C@H]1Oc2ccc(NC(=O)Nc3ccc4c(c3)OCO4)cc2C(=O)N([C@H](C)CO)C[C@H]1C,7,10,2.3,-0.38
C[C@@H]1CCCCO[C@@H](CN(C)C(=O)c2ccccc2)[C@@H](C)CN([C@H](C)CO)C(=O)c2cc(NC(=O)NC3CCCCC3)ccc2O1,.,0,-1.4,-0.3
C[C@H]1CN([C@@H](C)CO)C(=O)Cc2cc(NC(=O)CCCCCC(=O)Nc3ccccc3N)ccc2O[C@@H]1CN(C)C(=O)Nc1ccccc1,.,6,1.4,0.071
Cc1cc2c(c(=O)n1CC1CCCO1)C(c1cccs1)C(C#N)=C(N)O2 (centres undefined),.,-10,0.4,-0.2
COCCNc1ncnc2c1cnn2-c1cccc(C)c1,.,-94,1.2,.
COc1cc2c(c(OC)c1OC)c(=O)c1ccccc1n2C,1,.,.,0.0088
COc1ccc(CCNc2ncnc3scc(-c4cccs4)c23)cc1OC,.,58,-6.2,.
C[C@@H]1CN([C@@H](C)CO)C(=O)Cc2cc(NC(=O)Cc3cn(C)c4ccccc34)ccc2O[C@@H]1CN(C)CC1CCCCC1,-7,4,.,-0.04
C[C@@H]1CCCCO[C@@H](CN(C)Cc2ccc(C(F)(F)F)cc2)[C@@H](C)CN([C@H](C)CO)C(=O)c2cc(NC(=O)NC3CCCCC3)ccc2O1,4,32,-1.2,0.12
Cc1ccc(S(=O)(=O)Nc2cccc3c2O[C@@H](CN(C)C(=O)Nc2cccc4ccccc24)[C@@H](C)CN([C@H](C)CO)C3=O)cc1,34,14,.,0.36
C[C@@H]1CN([C@@H](C)CO)C(=O)Cc2cc(NC(=O)CCCCCC(=O)Nc3ccccc3N)ccc2O[C@@H]1CN(C)Cc1ccc(-c2ccccc2)cc1,.,56,0.5,-0.73
C[C@@H]1CN([C@H](C)CO)C(=O)c2cccc(NC(=O)Nc3cccc4ccccc34)c2O[C@H]1CN(C)S(=O)(=O)c1ccc(F)cc1,-7,-2,-2.2,0.13
Cc1ccc(S(=O)(=O)N(C)C[C@@H]2OCCCC[C@@H](C)Oc3ccc(NC(=O)CCCCCC(=O)Nc4ccccc4N)cc3C(=O)N([C@H](C)CO)C[C@@H]2C)cc1,.,2,-0.1,-0.27
C[C@@H]1CN([C@H](C)CO)C(=O)c2cc(NC(=O)Nc3ccccc3)ccc2O[C@H]1CN(C)S(=O)(=O)c1cccs1,.,-40,4.8,-0.35
C[C@H](CO)N1C[C@H](C)[C@H](CN(C)C(=O)Nc2ccccc2)Oc2ccc(NC(=O)Nc3ccc(F)cc3)cc2C1=O,47,-17,-1.8,0.11
C[C@@H]1CCCCO[C@@H](CN(C)CC2CCCCC2)[C@@H](C)CN([C@H](C)CO)C(=O)c2cc(NS(=O)(=O)c3ccc(Cl)cc3)ccc2O1,-4,13,-12,0.1
Cc1cccc(-c2nnc(SCC(=O)Nc3cccc(C(F)(F)F)c3)n2-c2ccccc2)c1,.,-3,0.2,.
COc1cc(OC)c2c(c1)OC(c1ccccc1)CC2=O (centres undefined),-3,2,.,0.055
COc1ccc(CCn2cnc3oc(-c4ccccc4)c(-c4ccccc4)c3c2=N)cc1OC,-9,11,-0.9,0.45
C[C@@H]1CN([C@@H](C)CO)C(=O)Cc2cc(NS(C)(=O)=O)ccc2O[C@@H]1CN(C)C(=O)NC1CCCCC1,-22,0,-0.4,-0.057
Cc1cccnc1NC(=S)NC(=O)c1cncc(Br)c1,.,-47,1.1,.
COc1ccc(C(=O)CSc2ncn[nH]2)cc1OC,.,-12,0.6,.
C[C@H]1CN([C@@H](C)CO)C(=O)Cc2cc(NC(=O)Cc3cn(C)c4ccccc34)ccc2O[C@H]1CN(C)C(=O)Nc1ccc(C(F)(F)F)cc1,.,30,-1.2,-0.42
C[C@@H]1CN([C@H](C)CO)C(=O)c2cccc(NC(=O)C3CC3)c2O[C@H]1CN(C)C(=O)Nc1ccc2c(c1)OCO2,14,5,.,-0.16
CNC[C@@H]1Oc2c(NC(=O)Nc3ccc(C(F)(F)F)cc3)cccc2C(=O)N([C@H](C)CO)C[C@H]1C,-10,0,.,0.42
CS(=O)(=O)N(CC(=O)NC1CCCCC1)c1ccc(F)c(Cl)c1,.,-14,1.5,.
CC(C)(C)C(/C=C/c1ccc(Cl)cc1Cl)n1nnnc1C(C)(C)N1CCOCC1 (centres undefined),21,-5,-0.6,0.34
CC(C)NC(=O)N(C)C[C@@H]1Oc2ccc(NC(=O)CCN3CCOCC3)cc2C(=O)N([C@@H](C)CO)C[C@@H]1C,-34,-7,-0.2,0.17
C[C@H]1CN([C@@H](C)CO)C(=O)Cc2cc(NC(=O)Cc3cn(C)c4ccccc34)ccc2O[C@@H]1CN(C)Cc1ccc(Oc2ccccc2)cc1,-31,6,0.6,0.014
COc1ccc(S(=O)(=O)N(C)C[C@@H]2Oc3ccc(NS(=O)(=O)c4ccc(C)cc4)cc3CC(=O)N([C@H](C)CO)C[C@@H]2C)cc1,-38,6,2.2,0.17
O=C(NC(Cc1ccc(F)cc1)C(=O)O)c1ccccc1 (centres undefined),.,-9,1.2,.
